Screening data from PubChem BioAssay.
H5N1 antiviral: antiviral screen in MDCK cells, H5N1 avian flu; AID 740; hit rate 0.07% among 96,000; cytopathic effect, luminescence, 72 h; active compounds read high; no value below 0 was filed and about half of the inactive calls have no number; reference of the scale not given here; inhibition, % at 50 µM; in the data active = inhibition above about 25%
* = called active by the depositor; i = inactive.

structure	H5N1 antiviral
Cc1ccc(/C=N/n2c(C)nnc2C)s1	0.7
O=C(c1cc(-c2ccc(Cl)c(Cl)c2)on1)N1CCCC1	0.4
O=C(NC1CC2CCCC(C1)N2S(=O)(=O)c1ccccc1)c1ccco1 (stereo unspecified)	i
Cc1cc(N2C(=O)CC(N3CCN(C(c4ccccc4)c4ccccc4)CC3)C2=O)no1 (stereo unspecified)	0.5
Cc1ccc(NC(=O)Nc2ccc(C(=O)N3CCOCC3)cc2)cc1	1.2
Cc1[nH]n(-c2ccccc2)c(=O)c1-c1cccc(Cl)c1	0.3
CCC(c1nnnn1CS(=O)(=O)c1ccc(C)cc1)N1CCN(c2nc3ccccc3s2)CC1 (stereo unspecified)	i
CCOc1ccc(N(CC(=O)Nc2ccc3c(c2)OCCO3)S(=O)(=O)c2c(C)noc2C)cc1	i
COCCN(Cc1cc2cc3c(cc2[nH]c1=O)OCO3)C(=O)c1cccs1	0.3
CCOC(=O)N1CCC(NC(=O)C(CC(C)C)NC(=O)C2CCCCC2)CC1 (stereo unspecified)	0.2
CC1CCCN(C(=O)C2CCN(S(=O)(=O)c3cccc4cccnc34)CC2)C1 (stereo unspecified)	1.7
CCOC(=O)/C(C#N)=C1/C=Cc2ccccc2N1CC	3.5
COc1ccc(CCN2C(=O)CC(N3CCN(c4ccccn4)CC3)C2=O)cc1OC (stereo unspecified)	0.1
O=C(OCc1ccc2c(c1)OCO2)c1cccc(S(=O)(=O)N2CCCCC2)c1	0.4
COc1ccc(C(=O)N=c2sc3c(C)ccc(OC)c3n2C)cc1	i
c1cn(C23CC4CC(CC(C4)C2)C3)cn1	2.5
O=C(/C=N/O)Nc1ccc(F)cc1	i
CCOc1ccc(C(=O)Nc2cc(C)c3c(=O)oc4ccccc4c3n2)cc1	i
O=C1NC(=O)C(CCc2ccncc2)(c2ccccc2)C(=O)N1	0.1
O=C(Nc1ccc(N2CCCCC2)c(Cl)c1)c1cccnc1	0.1

Rewritten field by field: part of the list above.
> O=C(/C=N/O)Nc1ccc(F)cc1
  H5N1 antiviral: i
> CCOc1ccc(C(=O)Nc2cc(C)c3c(=O)oc4ccccc4c3n2)cc1
  H5N1 antiviral: i
> O=C1NC(=O)C(CCc2ccncc2)(c2ccccc2)C(=O)N1
  H5N1 antiviral: 0.1

Other results follow.
structure	H5N1 antiviral
COC(=O)c1ccc(C2c3c(oc4ccc(F)cc4c3=O)C(=O)N2CCO)cc1 (stereo unspecified)	0.9
COc1cc(C2/C(=C(/O)c3ccc(OCC(C)C)cc3)C(=O)C(=O)N2CCN(C)C)ccc1O (stereo unspecified)	i
CCN(CC)S(=O)(=O)c1ccc(Cl)c(NC(=O)c2ccccc2C)c1	0.6
CCNc1ccc2c(Cl)cc(=O)oc2c1	0.6
CCOc1ccc2nc(SC(C)C(N)=O)[nH]c2c1 (stereo unspecified)	i
CCc1nc(SCc2cccnc2)c2c(=O)n(C)c(=O)n(C)c2n1	3.9
Cc1ccc2cccc(OCC(=O)NCc3ccco3)c2n1	2.5
Cn1c(SCc2ccccc2)nnc1-c1ccc2c(c1)OCO2	2.0
O=C(CSc1nnc(-c2ccccc2)n1Cc1ccco1)Nc1ccc(S(=O)(=O)N2CCCC2)cc1	0.3
Cc1cccc(NC(=S)NNC(=O)c2csc3c2CCCC3)c1	i
CCc1cc2c(NCCC(=O)O)ncnc2s1	i
COC(=O)c1[nH]c2cccc(C)c2c1NC(=O)CN1CCN(c2ccccc2OC)CC1	i
CC(=O)Nc1ccc(S(=O)(=O)N2CCSC2c2ccc(C)cc2)cc1 (stereo unspecified)	0.6
CCCN1C(=O)/C(=C2\SC(N3CCCCC3)=NC2=O)c2ccccc21	1.5
NC(=O)CNC(=O)[C@@H]1CC2(CC(c3cccc(Br)c3)=NO2)CN1C(=O)c1ccc(Br)cc1 (stereo partly specified)	3.4
CCn1c(SCC(=O)Nc2ccc(S(=O)(=O)Nc3onc(C)c3C)cc2)nnc1-c1ccccc1	1.5
CCOc1ncccc1C(=O)Nc1cccc(C(=O)Nc2cccc(S(=O)(=O)CCO)c2)c1	i
Cc1oc(-c2ccccc2)nc1CS(=O)CC(=O)N1CCc2ccccc2C1 (stereo unspecified)	0.4
Cc1ccc2nc(SCC(=O)NCc3ccco3)c(C#N)cc2c1	4.0
Cc1ccc(-c2nc3ncccc3o2)cc1NC(=O)COc1ccccc1	i
O=C(CSc1nnc(-c2ccccc2O)o1)Oc1ccc(OCc2ccccc2)cc1	i
Cc1cc(N2CCOCC2)nc(SCC(=O)c2ccccc2)n1	1.8
O=C(c1ccco1)N1CCN(C(c2ccccc2F)c2nnnn2CC2CCCO2)CC1 (stereo unspecified)	2.2
Cc1cc(C(=O)N2CCC(Cc3ccccc3)CC2)ccc1[N+](=O)[O-]	5.0
COc1ccc(OC)c(N(CC(=O)NCc2ccncc2)S(C)(=O)=O)c1	i
O=C(NC1CCSC1=O)c1ccc(Oc2ccc(F)cc2)nc1 (stereo unspecified)	0.8
O=C(Nc1cccnc1)c1cccnc1	2.0
CC1(C)c2ccccc2N2CCC(=O)NC21/C=C/c1ccco1 (stereo unspecified)	5.0
CC(Sc1nnc(-c2ccc(Cl)cc2Cl)n1Cc1ccccc1)C(=O)Nc1nccs1 (stereo unspecified)	4.7
COC(=O)Cc1cc(=O)n(-c2nc3ccccc3s2)[nH]1	i

Reprinted from the part before: 2 compounds, followed by the next part.
structure	H5N1 antiviral
CC(Sc1nnc(-c2ccc(Cl)cc2Cl)n1Cc1ccccc1)C(=O)Nc1nccs1 (stereo unspecified)	4.7
COC(=O)Cc1cc(=O)n(-c2nc3ccccc3s2)[nH]1	i
CCOC(=O)Cn1nnnc1CN(Cc1cccs1)Cc1cc2cc(C)ccc2[nH]c1=O	i
COc1ccc(NC(=O)Cn2nnc(C(=O)NCc3ccccc3OC)c2N)cc1Cl	i
COc1ccc(NC(=O)CC2C(=O)N(c3ccc(OC)cc3)C(=O)N2CCN2CCN(C)CC2)cc1 (stereo unspecified)	0.2
Cn1ccnc1SCC(=O)Nc1cccc(O)c1	i
Cc1c(-c2ccc(F)cc2)[n+](=O)c(-c2ccc(F)cc2)c(C)n1[O-]	0.8
Cc1ccc(-c2csc3ncnc(NCCN4CCOCC4)c23)cc1	0.7
CCOC(=O)N1CCN(C(=O)CC(C(=O)N2CCc3ccccc32)n2ccnc2)CC1 (stereo unspecified)	0.3
O=C1OCCC1Sc1nnc(-c2ccc(O)cc2)o1 (stereo unspecified)	i
CCCC(=O)Nc1cc(C)c(NC(=O)C23CC4CC(CC(C4)C2)C3)cn1	0.2
CC(C)CCNC(=O)c1cccc(Cl)c1	i
CC(CCc1ccc(O)cc1)N(C)CCc1ccccc1 (stereo unspecified)	i
COc1ccc(-c2csc(N(CCc3ccccc3)C(=O)COc3ccccc3)n2)cc1	0.8
N#Cc1c(N)n(CCCN2CCOCC2)c2nc3ccccc3nc12	0.9
Cc1cc(C)nc(SCc2ccc3nonc3c2)n1	0.1
Cc1ccc(C)c(N2CCN(C(=O)c3ccc4nc(-c5ccco5)c(-c5ccco5)nc4c3)CC2)c1	i
CN1C(=O)C(CC(=O)Nc2ccc(F)cc2)N(CCCc2ccccc2)C1=S (stereo unspecified)	0.8
O=C(NC1CCCCC1)NC1(C(=O)NCCCN2CCOCC2)CCCCC1	0.9
COc1cc2oc(=O)c(Br)c(C)c2c(OC)c1OC	i
COc1ccccc1N1CC(O)=C(c2nc3ccccc3s2)C1=N	i
CCC(C)NC(=O)CSC1=Nc2ccccc2C2=NC(CC(=O)NCc3ccccc3)C(=O)N12 (stereo unspecified)	0.2
COc1ccc(-c2[nH]nc3c2C(c2ccc(OC(=O)N4CCOCC4)cc2)C(C#N)=C(N)O3)cc1 (stereo unspecified)	i
CCn1c(Cc2ccccc2)nnc1SCC(=O)Nc1nnc(-c2ccccc2)s1	i
O=C(O)CSc1nnc(-c2ccncc2)n1Cc1ccccc1	2.4
O=S(=O)(c1ccc2nc(-c3ccco3)c(-c3ccco3)nc2c1)N1CCOCC1	i
O=c1[nH]c2cc3c(cc2cc1CN(Cc1nnnn1CC1CCCO1)C1CCCC1)OCO3 (stereo unspecified)	i
CCCC(=O)C1=C(O)C(C(=O)OC)C(C)(C)CC1=N (stereo unspecified)	i
C=CCOC(=O)CCC(=O)Nc1cc(OC)nc(OC)n1	i
COc1ccc(C(=O)NC(=S)NCCO)cc1Br	1.4
O=C(c1ccco1)N1CCN(C(=O)C2c3ccccc3Oc3ccccc32)CC1	2.5
CCN1C(=O)NC(c2cccnc2)C(C(=O)OC)=C1C (stereo unspecified)	0.6
O=C(O)C1C2C=CC(C3CC23)C1C(=O)N1CCc2ccccc21 (stereo unspecified)	i
CCn1cc(C(=O)OCC(=O)NCc2ccc3c(c2)OCO3)c(=O)c2ccc(C)nc21	i
O=C(CN1CCN(c2ccc(F)cc2)CC1)Nc1cc(C(F)(F)F)ccc1Cl	i
CCCCCCn1c(SCC(=O)OC)nc2c1c(=O)[nH]c(=O)n2C	0.9
CC1=CC(C)=Nc2ccccc2N1	i
COc1cc(C2NC(=O)NC(c3ccccc3)=C2C(C)=O)ccc1OCC(=O)O (stereo unspecified)	0.6
OCCSc1nc2ccccc2n1CCOc1ccccc1	0.3
O=C(c1ccc(F)cc1F)N1CCN(c2ncccn2)CC1	i
Cc1cc(Nc2ccc3c(c2)OCCO3)n2ncnc2n1	1.0
O=C(Nc1nc(-c2ccccc2)cs1)C1CCCO1 (stereo unspecified)	0.5
Cn1c(SCC(=O)NCc2cccs2)nnc1-c1ccco1	i
COCc1nnc(NC(=O)CCCOc2ccccc2OC)s1	i
COc1ccc(C(=O)SC2=NCCS2)cc1OC	i
CC1CC(=O)C2=C(C1)Nc1ccccc1N(C(=O)COc1ccccc1)C2c1ccco1 (stereo unspecified)	0.2
COc1ccc(CN(CCN2CCOCC2)C(=O)c2c(F)cccc2F)cc1OC	i
Cc1ccccc1NC(=O)COc1nsnc1N1CCOCC1	i
CCOC(=O)c1ccc(CNS(=O)(=O)c2c(C)ccc3nsnc23)o1	2.1
O=C(c1ccccc1)N1CCCCC(S(=O)(=O)c2ccc3ccccc3c2)C1=O (stereo unspecified)	i
CN(N)C(=S)NCc1ccccc1	0.1
Cc1ccc(C(=O)CCNc2cccc(Br)c2)o1	0.7

(more compounds)
structure	H5N1 antiviral
CCN1CCN(C(=O)c2ccc3c(c2)N(Cc2ccc(F)cc2)C(=O)c2ccccc2S3=O)CC1 (stereo unspecified)	1.2
CCOC(=O)c1sc2nc[nH]c(=O)c2c1C	1.1
COc1ccccc1Nc1ncc(C(C)=O)c(C)n1	i
Cc1ccc(-c2nc3ncccc3o2)cc1NC(=O)c1cc2ccccc2o1	i
COc1cccc(Nc2nc(-c3sc(N)nc3C)cs2)c1	i
Cc1nnc(SCCn2c(N3CCCCCC3)nc3c2c(=O)[nH]c(=O)n3C)s1	2.1
CC(C)(C)C(=O)c1cn(CC(=O)NCc2ccc3c(c2)OCO3)c2ccccc12	i
CCN(c1ccccc1)S(=O)(=O)c1ccc(NC(=O)C(C)(C)C)cc1	0.9
COc1ccc(C2N(c3cc(C)on3)C(=O)C3CCCN32)cc1OC (stereo unspecified)	i
CCOC(=O)C(NC(=O)c1ccccc1)(Nc1cc(C)on1)C(F)(F)F (stereo unspecified)	0.9

Look-ups from the results shown.
`CC1CC(=O)C2=C(C1)Nc1ccccc1N(C(=O)COc1ccccc1)C2c1ccco1` (stereo unspecified) in H5N1 antiviral = 0.2
`Cc1ccc(C(=O)CCNc2cccc(Br)c2)o1` in H5N1 antiviral = 0.7

Continuation.
structure	H5N1 antiviral
C=CCOC(=O)C1=C(C)OC(N)=C(C#N)C1c1c(C)nn(-c2ccccc2)c1Cl (stereo unspecified)	i
O=C(c1ccc(CS(=O)(=O)Cc2ccc(Cl)cc2)o1)N1CCCC1	i
NC(=O)COC(=O)CNC(=O)c1ccc(Cl)cc1	i
Cc1cc(C)c2c(N)c(C(=O)NN3CC(=O)N(c4ccccc4F)CC3=O)sc2n1	0.4
COc1cc(C(Nc2ccc3c(c2)OCO3)C(=O)NC2CCCCC2)cc(OC)c1OC (stereo unspecified)	i
COC(=O)C1C(=O)NC(SC)=C(C#N)C1c1ccccc1F (stereo unspecified)	i
Cc1ccccc1N1CCN(Cc2c(C#N)c3ccccc3n2C)CC1	i
CCCSc1nnc2nc3c(nn12)c1ccccc1n3C	2.7
CSC1=NCCN1C(=O)c1ccco1	2.3
Cc1ccc(N(C(=O)c2csnn2)C(C(=O)NC(C)(C)C)c2cccs2)cc1 (stereo unspecified)	i

Four neighbouring entries already listed, quoted:
structure	H5N1 antiviral
Cc1ccc(/C=N/n2c(C)nnc2C)s1	0.7
O=C(c1cc(-c2ccc(Cl)c(Cl)c2)on1)N1CCCC1	0.4
O=C(NC1CC2CCCC(C1)N2S(=O)(=O)c1ccccc1)c1ccco1 (stereo unspecified)	i
Cc1cc(N2C(=O)CC(N3CCN(C(c4ccccc4)c4ccccc4)CC3)C2=O)no1 (stereo unspecified)	0.5

Additional structures follow:
structure	H5N1 antiviral
CCCn1c(SCC(=O)c2cc(C)c(C)cc2C)n[nH]c1=O	0.8
CN1CCN(C/C(=C2/N=C(c3ccccc3)OC2=O)N(C)C)CC1	i
CCN1CCCC1CNC(=O)c1cn(C)c2ccc(S(=O)(=O)N3CCCCCC3)cc2c1=O (stereo unspecified)	2.0
COC(=O)c1c(NC(=O)Cc2cccs2)sc2c1CCC(C)C2 (stereo unspecified)	i
COc1ccc(OC)c(S(=O)(=O)NCCc2ccccc2)c1	1.8
CCn1c(SC(C)C(=O)OC)nnc1-c1c[nH]c2ccccc12 (stereo unspecified)	0.7
CCCn1c(CNc2ccc(Br)cc2)nc2ccccc21	i
Cc1c(NC(=O)c2ccc(CN3CCc4ccccc4C3)cc2)c(=O)n(-c2ccccc2)n1C	1.0

This is a subset, so the mix of outcomes need not match the whole.
